# Screening results (PubChem)
# rRNA inh HTS: inhibits bacterial ribosomal RNA function over humanized ribosomes | E. coli WT GFP vs humanized-ribosome RFP mutants, fluorescence, 24 h; hits give low values; DMSO median 0, no signal -100 | GFP signal change (wild-type ribosome), % (concentration not given with the values) | 350,000 compounds, 1.6% hits | AID 720706;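 active = significant combined selectivity score with lowered wild-type GFP, culture density cut under 30%, mutant RFP and density less affected; inactive = any of these conditions unmet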; note: one replicate is shown; some compounds called inactive have numbers as strong as hits
# rRNA inh HTS OD600: further read-out of rRNA inh HTS, marked with its call; OD600 change, %; measured here: OD600 growth;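 optical density of the mix in the first replicate; 0 = DMSO median and -100 = no signal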
# rRNA inh HTS RFP: also measured in rRNA inh HTS; calls as there; RFP signal change, %; measured here: RFP humanized mutant strains;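 first replicate; 0 = DMSO median and -100 = no signal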
# An asterisk follows results filed as active; & = joins results of further samples.
entry	smiles	rRNA inh HTS	rRNA inh HTS OD600	rRNA inh HTS RFP
1	Cc1noc(C)c1S(=O)(=O)Nc1ccc2c(c1)C(=O)N([C@H](C)CO)C[C@H](C)[C@H](CN(C)C(=O)NC(C)C)OCCCC[C@@H](C)O2	10&4	9&2	-2.6&1.4
2	Cc1ccc(S(=O)(=O)N(C)C[C@@H]2Oc3ccc(NS(C)(=O)=O)cc3C(=O)N([C@H](C)CO)C[C@H]2C)cc1	1	5	2.3
3	C[C@H](CO)N1C[C@H](C)[C@H](CN(C)C(=O)Nc2ccc(F)cc2)Oc2ccc(NC(=O)Nc3ccc(C(F)(F)F)cc3)cc2CC1=O	-2	-13	-1.3
4	CCCNC(=O)N1CC2(C1)[C@H](c1ccccc1)[C@H](CO)N2CC1CCCC1	-6	-17	-3.4
5	C[C@@H]1CN([C@@H](C)CO)C(=O)c2cc(NC(=O)Nc3ccc4c(c3)OCO4)ccc2O[C@@H](C)CCCCO[C@@H]1CN(C)S(=O)(=O)c1cccs1	-5	3	-4.0
6	C[C@@H]1CCCCO[C@@H](CN(C)S(=O)(=O)c2cn(C)cn2)[C@H](C)CN([C@@H](C)CO)C(=O)c2cc(NC(=O)Nc3cccc4ccccc34)ccc2O1	-7	3	0.0
7	CN(C[C@@H]1N[C@H](CO)[C@@H]1c1ccccc1)C(=O)c1ccccc1F	2	14	-0.8
8	O=C(Cc1ccccn1)NCC[C@@H]1CC[C@@H](NC(=O)CN2CCOCC2)[C@@H](CO)O1	1	4	-2.7
9	COc1ccc(S(=O)(=O)Nc2ccc3c(c2)C(=O)N([C@H](C)CO)C[C@@H](C)[C@H](CN(C)C(=O)C2CCCCC2)OCCCC[C@@H](C)O3)cc1	-5	-3	-0.4
10	CN1C[C@H]2[C@@H](c3ccccc31)[C@H](CO)N2Cc1ccccc1F	-1	0	-6.9
11	Cc1noc(C)c1S(=O)(=O)Nc1ccc2c(c1)C(=O)N([C@@H](C)CO)C[C@@H](C)[C@H](CN(C)C(=O)Nc1ccc(C(F)(F)F)cc1)O2	-8	-12	2.0
12	C[C@@H]1CN([C@@H](C)CO)S(=O)(=O)c2ccc(C3=CCCCC3)cc2O[C@@H]1CN(C)C	1	-1	-2.3
13	COc1ccc(NC(=O)N(C)C[C@@H]2Oc3c(cccc3N(C)C)C(=O)N([C@@H](C)CO)C[C@H]2C)cc1	-2	2	0.0
14	O=C(NCC[C@H]1CC[C@@H](NC(=O)C2CCCCC2)[C@H](CO)O1)c1cnccn1	-4	0	1.8
15	CO[C@H]1CN(C)C(=O)c2ccc(NC(=O)C3CC3)cc2OC[C@H](C)N(CC2CCOCC2)C[C@H]1C	3	2	-0.6
16	CCCC#Cc1cnc2c(c1)C(=O)N([C@@H](C)CO)C[C@H](C)[C@H](CN(C)C(=O)c1ccc3c(c1)OCO3)O2	0	-1	1.4
17	C[C@@H]1CN([C@@H](C)CO)C(=O)c2cccc(NC(=O)c3cnccn3)c2O[C@@H]1CN(C)S(=O)(=O)c1ccccc1	-2	-1	3.5
18	C[C@H]1CN([C@@H](C)CO)C(=O)c2cc(C#CC3CCCCC3)cnc2O[C@@H]1CN(C)C(=O)c1ccncc1	0	4	-2.0
19	CN(C)CC(=O)N1CC2(C1)[C@@H](c1ccccc1)[C@@H](CO)N2S(C)(=O)=O	2	9	-0.9
20	C[C@@H]1CN([C@H](C)CO)C(=O)c2ccccc2-c2ccccc2CO[C@@H]1CN(C)C(=O)Nc1ccc2c(c1)OCO2	0	-7	-0.2
21	CO[C@@H]1CN(C)C(=O)c2cc(NC(=O)Nc3cccc(F)c3)ccc2OC[C@@H](C)N(C(=O)Nc2c(C)noc2C)C[C@H]1C	0	4	0.8
22	CC(=O)N1[C@H](CO)[C@@H](c2ccccc2)C12CN(C(=O)c1ccc3c(c1)OCO3)C2	0	6	-4.0
23	CCC(=O)Nc1ccc2c(c1)C(=O)N(C)[C@H]1CC[C@H](CC(=O)N[C@H](C)c3ccccc3)O[C@H]1CO2	-2	-6	0.2
24	COc1ccc(NC(=O)Nc2ccc3c(c2)C(=O)N([C@@H](C)CO)C[C@H](C)[C@H](CN(C)S(=O)(=O)c2ccc(F)cc2)O3)cc1	-5	-10	1.8
25	Cc1noc(C)c1S(=O)(=O)Nc1cccc2c1O[C@@H](CN(C)C(=O)Nc1ccc3c(c1)OCO3)[C@@H](C)CN([C@H](C)CO)C2=O	-3	0	2.0
26	CC(C)NC(=O)N(C)C[C@H]1Oc2c(NC(=O)c3cnccn3)cccc2C(=O)N([C@@H](C)CO)C[C@@H]1C	4	7	-0.2
27	O=C(CSc1ccc2nnc(-c3cccnc3)n2n1)Nc1ccccc1F	3	11	-0.3
28	Cc1noc(C)c1NC(=O)N(C)C[C@H]1Oc2c(NC(=O)NC(C)C)cccc2C(=O)N([C@@H](C)CO)C[C@@H]1C	1	8	-0.1
29	COc1ccc(S(=O)(=O)Nc2ccc3c(c2)C(=O)N([C@@H](C)CO)C[C@H](C)[C@H](CN(C)C(=O)Nc2ccc4c(c2)OCO4)O3)cc1	1	-8	-0.1
30	O=C(Nc1ccc(F)cc1)Nc1ccc2c(c1)[C@@H]1C[C@@H](CC(=O)N3CCCCC3)O[C@H](CO)[C@@H]1O2	-1	-5	0.8
31	CCCNC(=O)N1CC2(C1)[C@H](c1ccccc1)[C@@H](CO)N2Cc1ccccc1	1	-8	0.0
32	Cc1ccc(S(=O)(=O)Nc2cccc3c2O[C@H](CN(C)Cc2ccncc2)[C@@H](C)CN([C@@H](C)CO)C3=O)cc1	-1	1	-1.7
33	CO[C@@H]1CC[C@@H]2CCOc3c(C#N)cccc3C(=O)N(C)C[C@H](C)C(=O)N(C)C[C@@H]1O2	1	8	-0.7
34	CN1CCCN(c2cc(-c3ccc4ccccc4c3)nc3ccnn23)CC1	11	11	55
35	COc1cc2c(cc1[N+](=O)[O-])-c1ccc([N+](=O)[O-])cc1C2	-23*	-19*	-8.8*
36	CCC(=O)N1[C@@H](CO)[C@@H]2c3ccccc3N(C(=O)Nc3cccc(Cl)c3)C[C@@H]21	-1	0	4.7
37	C[C@H](CO)N1C[C@H](C)[C@H](CN(C)Cc2ccc3c(c2)OCO3)OCCCC[C@H](C)Oc2ccc(NC(=O)c3ccncc3)cc2C1=O	0	-4	-0.1
38	C[C@H](NC(=O)[C@H]1[C@H](CO)[C@H]2Cn3c(ccc(-c4ccncc4)c3=O)[C@@H]1N2C)c1ccccc1	2	-3	-0.5
39	COc1ccc(NC(=O)Nc2ccc3c(c2)C(=O)N([C@H](C)CO)C[C@@H](C)[C@H](CN(C)S(=O)(=O)c2cn(C)cn2)O3)cc1	1	-4	-0.9
40	COc1ccc(S(=O)(=O)Nc2ccc3c(c2)C(=O)N([C@H](C)CO)C[C@@H](C)[C@H](CN(C)S(C)(=O)=O)OCCCC[C@@H](C)O3)cc1	0	3	1.3
41	CS(=O)(=O)N1CC2(C1)[C@H](c1ccccc1)[C@@H](CO)N2Cc1ccc(F)cc1	2	-1	-1.5
42	C[C@@H]1CN([C@@H](C)CO)S(=O)(=O)c2ccc(C#CC3CC3)cc2O[C@@H]1CN(C)C	5	10	0.0
43	O=C(Nc1ccc([N+](=O)[O-])cc1)C(c1ccccc1)c1ccccc1	-3	18	-1.1
44	O=C(C1CCCCC1)N1[C@@H]2CN(S(=O)(=O)c3ccccc3)c3ccccc3[C@@H]2[C@@H]1CO	-7	-4	2.3
45	CN1C(=O)c2cc(NC(=O)Cc3cccs3)ccc2OC[C@H]2O[C@H](CC(=O)N[C@H]3CCN(Cc4ccccc4)C3)CC[C@@H]21	4	6	3.4
46	CC(=O)N(C)C[C@H]1Oc2ncc(-c3ccc(C)cc3)cc2C(=O)N([C@H](C)CO)C[C@H]1C	1	10	-1.8
47	COc1ccc(-c2ccc3n(c2=O)C[C@H]2N[C@@H]3[C@@H](C(=O)N3CCCCC3)[C@@H]2CO)cc1	1	5	-0.9
48	CN1CCN(C(=O)C[C@@H]2CC[C@H](NC(=O)Cc3ccccn3)[C@H](CO)O2)CC1	2	1	-0.2
49	C[C@H](CO)N1C[C@H](C)[C@@H](CN(C)Cc2ccc(C(F)(F)F)cc2)OCCCC[C@H](C)Oc2ccc(NC(=O)Cc3ccccc3)cc2C1=O	-1	-10	2.8
50	COc1ccc(NC(=O)Nc2cccc3c2O[C@@H](CN(C)C(=O)Nc2cccc4ccccc24)[C@H](C)CN([C@H](C)CO)C3=O)cc1	-3	2	0.2
51	CC(C)NC(=O)Nc1ccc2c(c1)C(=O)N([C@@H](C)CO)C[C@H](C)[C@@H](CN(C)Cc1ccncc1)O2	2	2	-2.8
52	CO[C@@H]1CN(C)C(=O)c2ccc(NC(=O)C3CCCC3)cc2OC[C@H](C)N(C(=O)CC2CC2)C[C@@H]1C	0	-1	1.2
53	COc1ccc(-c2cnc3c(c2)C(=O)N([C@@H](C)CO)C[C@H](C)[C@H](CN(C)Cc2ccc(C(=O)O)cc2)O3)cc1	1	17	-4.6
54	C[C@@H]1CN([C@@H](C)CO)C(=O)c2cccc(NC(=O)c3ccc(-c4nccs4)cc3)c2O[C@H]1CN(C)C(=O)Nc1cccc2ccccc12	0	-13	1.8
55	CC(C)NC(=O)N(C)C[C@@H]1OCCCC[C@H](C)Oc2ccc(NC(=O)NC3CCCCC3)cc2C(=O)N([C@@H](C)CO)C[C@@H]1C	1	3	4.4
56	Fc1cccc(Cc2c(-c3ccco3)nc3c4ccccc4ccn23)c1	-21*	-4.8*	1.9*
57	CNC[C@H]1OCCCC[C@H](C)Oc2ccc(NC(=O)Nc3ccc(OC)cc3)cc2C(=O)N([C@H](C)CO)C[C@H]1C	6	-2	0.4
58	CC(C)NC(=O)N1CCCCN2[C@@H](CO)[C@H](c3ccc(C#Cc4ccccc4F)cc3)[C@@H]2C1	-60	-74	-11
59	C[C@@H]1CN([C@@H](C)CO)C(=O)c2cc(N(C)C)ccc2O[C@@H](C)CCCCO[C@@H]1CN(C)Cc1ccncc1	-2	5	-4.8
60	CNC[C@@H]1Oc2cc(-c3ccc(OC)cc3)ccc2S(=O)(=O)N([C@@H](C)CO)C[C@H]1C	1	-4	4.1

# Arranged by the number under rRNA inh HTS (smallest number first): 3 of the compounds above
entry	smiles	rRNA inh HTS	rRNA inh HTS OD600	rRNA inh HTS RFP
35	COc1cc2c(cc1[N+](=O)[O-])-c1ccc([N+](=O)[O-])cc1C2	-23*	-19*	-8.8*
14	O=C(NCC[C@H]1CC[C@@H](NC(=O)C2CCCCC2)[C@H](CO)O1)c1cnccn1	-4	0	1.8
17	C[C@@H]1CN([C@@H](C)CO)C(=O)c2cccc(NC(=O)c3cnccn3)c2O[C@@H]1CN(C)S(=O)(=O)c1ccccc1	-2	-1	3.5

# Back to the main list with the 6 entries that preceded the break.
entry	smiles	rRNA inh HTS	rRNA inh HTS OD600	rRNA inh HTS RFP
55	CC(C)NC(=O)N(C)C[C@@H]1OCCCC[C@H](C)Oc2ccc(NC(=O)NC3CCCCC3)cc2C(=O)N([C@@H](C)CO)C[C@@H]1C	1	3	4.4
56	Fc1cccc(Cc2c(-c3ccco3)nc3c4ccccc4ccn23)c1	-21*	-4.8*	1.9*
57	CNC[C@H]1OCCCC[C@H](C)Oc2ccc(NC(=O)Nc3ccc(OC)cc3)cc2C(=O)N([C@H](C)CO)C[C@H]1C	6	-2	0.4
58	CC(C)NC(=O)N1CCCCN2[C@@H](CO)[C@H](c3ccc(C#Cc4ccccc4F)cc3)[C@@H]2C1	-60	-74	-11
59	C[C@@H]1CN([C@@H](C)CO)C(=O)c2cc(N(C)C)ccc2O[C@@H](C)CCCCO[C@@H]1CN(C)Cc1ccncc1	-2	5	-4.8
60	CNC[C@@H]1Oc2cc(-c3ccc(OC)cc3)ccc2S(=O)(=O)N([C@@H](C)CO)C[C@H]1C	1	-4	4.1
61	O=C(C[C@H]1CC[C@@H]2[C@H](COC[C@H](O)CN2S(=O)(=O)c2cccc(F)c2)O1)NCCCN1CCOCC1	4	13	-3.2
62	CC(C)NC(=O)N(C)C[C@H]1Oc2ccc(NC(=O)Cc3ccccc3)cc2CC(=O)N([C@H](C)CO)C[C@@H]1C	0	-2	-3.0
63	OC[C@@H]1CN(Cc2cccnc2)C[C@H](n2cnc3c(NC4CCCC4)ncnc32)O1	10	4	-0.8
64	COCOCCn1cc(CN2CCS(=O)(=O)N(Cc3ccc(-c4ccc(OC)cc4)cc3)C(CC(C)C)C2=O)nn1 (stereo unspecified)	-4	-7	-0.1
65	C[C@@H]1CCCCO[C@H](CN(C)CC2CC2)[C@H](C)CN([C@H](C)CO)C(=O)c2cc(N(C)C)ccc2O1	3	14	2.9
66	C[C@@H]1CN([C@@H](C)CO)S(=O)(=O)c2ccc(-c3ccccc3)cc2O[C@H]1CN(C)C(=O)c1ccccc1F	-10	-14	-2.0
67	O=C1CCC(OCc2ccccc2)CCN1[C@H](CSc1ccccc1)Cc1ccccc1 (stereo partly specified)	12	6	0.5
68	C[C@H]1CN([C@@H](C)CO)C(=O)c2ccccc2-c2ccccc2CO[C@@H]1CN(C)C(=O)Oc1ccccc1	2	2	-1.2
69	COC(=O)C[C@@H]1CC[C@H]2[C@@H](COc3ccc(NC(=O)Nc4c(C)noc4C)cc3C(=O)N2C)O1	4	4	-2.1
70	COc1cccc(S(=O)(=O)N2C[C@@H]3N[C@H](C2)C3c2ccc(-c3ccccc3OC)cc2)c1 (stereo partly specified)	3&-60	-4&-75	2.6&-17
71	O=C(C[C@@H]1C[C@@H]2c3cc(NC(=O)Nc4ccccc4)ccc3O[C@@H]2[C@@H](CO)O1)NCc1cccc(F)c1	-5	1	2.2
72	C[C@@H]1CN([C@H](C)CO)C(=O)c2cc(NC(=O)Cc3cn(C)c4ccccc34)ccc2O[C@H]1CN(C)C	6	4	-0.5
73	C[C@H](O)C#Cc1ccc([C@@H]2[C@H]3CN(C(=O)c4ccc5c(c4)OCO5)CCCCN3[C@H]2CO)cc1	-1	-3	-4.6

# Some of the compounds tested; count on the stated rates, not on these rows.
